Source: PubChem BioAssay (National Center for Advancing Translational Sciences (NCATS))
gsp antagonist: antagonizes gsp, the McCune-Albright syndrome mutation. gsp-mutant cells, cAMP HTRF, 30 min; control for the full effect not named in the record. Potency, µM (titrated, usually from 76.9 µM), without a hit: at the highest dose activity change, negative = inhibition, actives largely listed as inhibitors. hit rate 0.4% among 340,000. AID 624288; active = falling curve of any shape with a large fitted effect; inconclusive = falling curve, mostly with a smaller effect; inactive = flat or rising curve; cell line not stated here;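 also: intracellular cAMP measured with PDE inhibitor Ro 20-1724 present during compound exposure; potency is read from the fitted curve at half-maximal effect; % is scaled to controls: 0 for no effect and ±100 for the full control effect; nearly all actives have a fitted effect of over 65% in size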
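HTRF cAMP measurement after 30 min RT detection following 30 min, 37C compound treatment alongside […] (added as 300 uM solution) in G418-selected cells seeded at 2000/well and grown 16–24 h.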
D2 ag: human D2 receptor agonism in beta-arrestin assay | DiscoveRx PathHunter D2 beta-arrestin, luminescence, 90 min; 100% = 57 uM dopamine signal | activation, % (no concentration beside the values) | hit rate 0.084% among 360,000; in the data active = activation above about 40%; inconclusive = about 15% to 40%; inactive = below about 15%; also: compound concentration not given in the record; the text of the record calls up to 30% inactive
Target sequence (P14416 whole entry, looked up): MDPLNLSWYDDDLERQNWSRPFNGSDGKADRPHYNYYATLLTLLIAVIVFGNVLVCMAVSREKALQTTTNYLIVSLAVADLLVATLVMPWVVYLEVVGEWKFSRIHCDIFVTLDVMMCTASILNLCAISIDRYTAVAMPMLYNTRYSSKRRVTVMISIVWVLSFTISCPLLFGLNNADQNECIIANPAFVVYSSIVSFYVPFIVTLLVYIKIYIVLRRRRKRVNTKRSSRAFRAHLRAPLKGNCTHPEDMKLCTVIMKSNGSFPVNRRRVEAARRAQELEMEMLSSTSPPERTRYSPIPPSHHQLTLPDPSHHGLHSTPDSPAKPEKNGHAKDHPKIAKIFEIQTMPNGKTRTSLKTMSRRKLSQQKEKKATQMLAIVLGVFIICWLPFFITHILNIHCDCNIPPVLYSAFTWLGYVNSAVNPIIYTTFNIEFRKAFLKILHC
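Agonist mode: compounds alone added to overnight-plated D2 PathHunter cells for 90 min at 37 C, with 57 uM final dopamine (EC100) defining full response. Beta-arrestin recruitment detected by chemiluminescent reagent, read after 1 h at ambient temperature.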
Menin-MLL FL inh: displaces fluorescein MLL peptide from human menin. Fluorescence polarization, fluorescein-MLL peptide displacement from menin. FP activity change, % at 61.4 µM. 290,000 tested, under 10 active. AID 1766; inconclusive = falling polarisation curve, or a change in total fluorescence; inactive = total fluorescence flat and polarisation flat or rising; no compound was filed as active; the % refers to the polarisation; negative = inhibition;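 also: % of control where 0% means no effect; inhibitors lower the polarisation; unlabelled MLL peptide was the positive control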
Sfp PPTase inh: inhibitors of Bacillus subtilis Sfp phosphopantetheinyl transferase. Q9F4F7. Biochemical Sfp PPTase activity, qHTS. Potency, µM, inactives show max response, negative = inhibition, actives largely listed as inhibitors. hit rate 3.5% among 310,000. AID 1490; active = well fitted inhibition curve with a large enough effect; inconclusive = small, poorly fitted or top-dose-only effect, or another doubt; inactive = no such curve, though single readings can be large or run the other way;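 also: the enzyme is Sfp with the accession as filed and its product quenches rhodamine fluorescence; potency is read from the fitted curve at half-maximal effect; 0% = enzyme reaction without inhibitor and -100% = no enzyme wells; top concentration of the series not given in the record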
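Sfp 15 nM + cpd, 15 min RT; start w/ rhodamine-CoA 5 uM, BHQ-2-YbbR 12.5 uM (final); 50 mM Hepes pH 7.6, 10 mM MgCl2, 0.01% NP-40, 0.01% BSA; read 525/598 nm at 0 and 30 min.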
ClpP mod: qHTS Assay for Activators of ClpP; ATP-dependent Clp protease proteolytic subunit (Bacillus subtilis (strain 168)), P80244; purified B. subtilis ClpP, FRET peptide cleavage, 20 min; Potency, µM (titrated, usually from 57.5 µM), for the others: top-dose activity change, negative = active; hit rate 1.9% among 340,000; active = well fitted falling curve with a large enough effect; inconclusive = small, poorly fitted or top-dose-only effect; inactive = no such curve, though single readings can be large or run the other way; also: potency is read from the fitted curve at half-maximal effect; the source files actives as falling curves though it sought activators and does not explain the sign; nearly all actives have a fitted effect of over 65% in size; many hits overshoot -100%
Target sequence (P80244 whole entry, looked up): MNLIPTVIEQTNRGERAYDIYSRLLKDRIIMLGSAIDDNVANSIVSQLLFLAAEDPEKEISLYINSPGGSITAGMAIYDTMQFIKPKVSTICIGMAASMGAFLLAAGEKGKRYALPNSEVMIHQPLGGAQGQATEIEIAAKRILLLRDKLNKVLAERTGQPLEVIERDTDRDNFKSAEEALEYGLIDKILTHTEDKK
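FRET quenching reversal measured ClpP activation: 10 microg/mL B. subtilis ClpP at pH 8 with the FRET-FV decapeptide, read at 430 nm after 320 nm excitation. The 20-min minus 0-min signal was scaled between DMSO/no-enzyme wells and ADEP (5.8 microM final).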
PINK1 expr mod: PINK1 expression modulation; hit rate 0.2% among 410,000; AID 624263; PINK1 immunofluorescence, high-content cytometry, 24 h; Potency, µM (series often up to 76.6 µM), for inactives: top-dose activation (PINK1 increase), usual class: activators; active = well fitted activation curve with a large enough effect; inconclusive = small, poorly fitted or top-dose-only effect; inactive = flat fitted curve, though single readings scatter; cell line not stated here;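 also: potency is read from the fitted curve at half-maximal effect; % of control where 0% means no effect; nearly all actives have a fitted effect of over 65% in size; a mitochondrial uncoupler was the plate control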
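PINK1 protein, normally rapidly degraded, was detected by immunofluorescence after 24 hour compound treatment of a stable cell line. Titration data (5 concentrations) came from laser-scanning cytometry, with CCCP-treated wells as controls.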
gsp agonist: agonists of gsp mutant (McCune-Albright syndrome); gsp mutant cells, cAMP HTRF, 30 min; control for the full effect not named in the record; Potency, µM (top dose mostly 76.9 µM), without a hit: top-dose activation (cAMP increase), most hits filed as activators; hit rate 0.13% among 340,000; AID 624287; active = well fitted activation curve with a large enough effect; inconclusive = small, poorly fitted or top-dose-only effect, or another doubt; inactive = no such curve, though single readings can be large or run the other way; cell line not stated here;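 also: phosphodiesterase inhibitor Ro 20-1724 added with compounds to block cAMP breakdown; potency is read from the fitted curve at half-maximal effect; nearly all actives have a fitted effect of over 60% in size; about a fifth of the inactives were tested at one dose only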
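Cells stably selected in G418 were plated at 2000/well, grown 16-24 hr, then given compounds in DMSO with the PDE inhibitor […] (300 uM solution added) for 30 min at 37C; cAMP was read by HTRF.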
The depositor's hits bear a star; ? = inconclusive; nt = no result given; & = joins results of further samples; [ ] = another dose, or the depositor's remark.

SMILES	gsp antagonist	D2 ag	Menin-MLL FL inh	Sfp PPTase inh	ClpP mod	PINK1 expr mod	gsp agonist
COC(=O)Cc1c(C)c2ccc(OC3CCCCC3=O)c(C)c2oc1=O (centres undefined)	-21%	-2.7	-1.8	5%	-2.3%	2.8%	16%[15.4 µM]
CCN1CCN(C(=O)/C=C/c2ccc(OC)c(OC)c2)CC1	1%	-2.3	2.2	1%	-2.7%	-1.4%	6%[15.4 µM]
FC(F)(F)c1ccccc1-c1ccc2ncnc(NCc3cccs3)c2c1	nt	nt	0.8	11%	nt	3.1%	nt
Cc1noc2ncnc(N3CCN(c4cccc(Cl)c4)CC3)c12	35µM*	0.2	2.5	10%	-2.1%	-0.4%	10%
CCOC(=O)N1CCN(c2nc3ccccc3n3cnnc23)CC1	1%	-1.7	1.7	11%	-1.0%	1.2%	4%
CCCCOc1ccc(NC2=NC3(CCCC3)N=C(N)N2)cc1	9%	-3.8	0.8	-11%	-0.1%	?	7%
O=C(O)[C@H](Cc1ccccc1)NC(=O)N1CCN(c2ccc(F)cc2)CC1	9%	-1.0	2.6	24%	-3.7%	-0.2%	7%
Cc1ccc(C(=O)Nc2ccccc2C(=O)NCc2ccco2)cc1S(=O)(=O)N1CCCCC1	0%	1.9	0.7	5%	?	-1.9%	-13%
CN(C(=O)COC(=O)C1CCN(S(=O)(=O)c2ccc3c(c2)OCCO3)CC1)c1ccccc1	-18%	-1.1	nt	nt	-0.6%	-3.2%	-6%
O=C(c1ccncc1)N1N=C(c2ccc(Cl)cc2)CC1c1ccccc1O (centres undefined)	-22%	-8.3	8.9	-82%	nt	1.7%	28%[15.4 µM]
COc1cc(/C=C/C(=O)c2ccc(F)cc2)cc(OC)c1OC	0%	-3.4	0.7	?	0.3%	-1.2%	16%[15.4 µM]
CCOC(=O)/C(=N\Nc1ccccc1)P(=O)(c1ccccc1)c1ccccc1	-15%	-2.7	-0.8	20µM*	nt	-2.5%	8%[15.4 µM]
O=C(CSc1n[nH]c(-c2ccco2)n1)Nc1ccc(Br)cc1	5%	-1.8	-0.2	21%	nt	1.0%	-19%[15.4 µM]
Cn1c(CSc2nc3ccc(Br)cc3[nH]2)nc2ccccc21	-2%	-3.8	2.9	-7%	-4.6%	nt	14%
Cc1ccc(S(=O)(=O)N(C)C[C@H]2OCc3cnnn3CCCC(=O)N([C@H](C)CO)C[C@H]2C)cc1	nt	-8.1	nt	nt	-2.6%	0.8%	-67%[inhibitor]
CCn1c(=O)n(CC)c2cc(N3CCCC3)c(NC(=O)c3ccc(C)c([N+](=O)[O-])c3)cc21	?	-7.0	-0.8	-24%	-8.9%	6.8%	16%
O=[N+]([O-])c1cccc2ccc(/C=C/c3cccc(Br)c3)nc12	-11%	1.4	-2.3	4%	?	0.8%	-6%[15.4 µM]
CCCCc1nc(SCC(=O)Nc2ccc(S(N)(=O)=O)cc2)n[nH]1	-2%	-2.2	2.0	13%	-2.7%&-0.8%	0.8%&1.9%	?
COc1ccc(CN(C)C(=O)Cc2ccc(OC)c(S(=O)(=O)N3CCOCC3)c2)cc1OC	21%	3.1	nt	nt	1.1%	3.0%	17%
C/C(=N/N1CCN(c2ccccn2)CC1)c1cccc([N+](=O)[O-])c1	5%	-2.1	0.3	0%	-1.2%	-0.4%	-8%[15.4 µM]
Cn1c(CC(=O)Nc2ccc(F)cc2)nnc1SCC(=O)NC1CCCCC1	3%	6.0	-2.3	16%	nt	3.1%	3%
COc1cc(SC)ccc1C(=O)NC1CCCc2ccccc21 (centres undefined)	-22%	1.3	-17	-22%	nt	-3.5%	-27%[15.4 µM]
CC(=O)Nc1ccc(S(=O)(=O)N2CCCC(C(=O)N3CCN(c4ccccc4)CC3)C2)cc1 (centres undefined)	0%	-0.6	0.0	9%	1.3%	-0.9%	-1%
COc1cccc(C(C)(O)c2nc(-c3ccoc3)cs2)c1 (centres undefined)	nt	-4.9	nt	nt	-3.5%	2.4%	nt
CC(C)N1C(=O)C2C(C(=O)NCc3ccccc3)C3C=CC2(O3)C1C(=O)NC(C)(C)C (centres undefined)	10%	-0.2	2.9	7%	-3.3%	-3.0%	-29%
CCOC(=O)c1c(SC)[nH]c2c(Cl)cccc2c1=O	14%	-1.2	-0.1	-1%	-1.3%	1.4%	2%[15.4 µM]
Fc1ccccc1NC(=S)Nc1cccc2cnccc12	-28%	7.1	2.1	22µM*	nt	1.5%	5%[15.4 µM]
CN(C)c1nc2n(c(=O)n1)CCO2	5%	-0.6	-1.2	22%	-0.7%	nt	-30%[inhibitor]
O=C(N/N=C/c1cccn1-c1ccc([N+](=O)[O-])cc1)C(O)c1ccccc1 (centres undefined)	4%	4.1	2.1	18µM*	-0.9%	0.2%[38.3 µM]	-29%
Cc1cn(CC(=O)N(C)Cc2ccco2)c(=O)[nH]c1=O	5%	-2.3	nt	nt	-4.4%	0.5%	nt
CC(=NCc1ccccc1)c1ccccc1O	nt	1.4	nt	nt	-2.8%	0.1%	-66%[inhibitor]
CCc1ccc(C(=O)C(C)OC(=O)c2nc3nc(C)cc(C)n3n2)cc1 (centres undefined)	7%	-1.5	nt	nt	-1.7%	1.4%	3%
FC(F)(F)c1ccccc1NC(=S)N/N=C1\CC2CC=CC12 (centres undefined)	4%	-3.8	1.7	-29%	nt	12%	-14%[15.4 µM]
COc1cc(/C=N/NC(=O)c2ccc(NC(=O)C3CC3)cc2)ccc1OC(C)=O	0%	-1.0	-2.7	?	-4.4%	4.0%	-1%
COc1ccc(Cn2nnnc2C(c2ccccc2)N2CCN(C3CCCC3)CC2)cc1 (centres undefined)	6%	-2.5	nt	-1%	-13%	-2.2%	-4%
O=C(Nc1ccc(S(=O)(=O)Nc2nccs2)cc1)c1nn(-c2ccccc2)ccc1=O	-3%	0.8	13	1%	3.6%	-2.1%	?
CC1CC(C)CN(c2ncc3c(n2)CC(c2ccccc2Cl)CC3=O)C1 (centres undefined)	-4%	-3.3	3.2	-21%	-4.1%	1.0%	6%
CN(C)c1ccc(C(C[N+](=O)[O-])c2c(N)n(C)c(=O)n(C)c2=O)c(F)c1C#N (centres undefined)	4%	-3.5	-2.8	7%	115%	0.7%	8%
O=C(CSc1nccc(=O)[nH]1)NC1CCCC1	8%	-2.3	nt	15%	nt	0.6%	14%
CC(C)CN(CCNC(=O)CN1C(=O)COc2ccc(S(=O)(=O)N3CCOCC3)cc21)CC(C)C	12%	-3.5	nt	14%	1.2%	1.7%	?
Cc1cccc2c1-c1sc(C(=O)Nc3ccccc3N3CCN(C)CC3)cc1CO2	3%	-1.2	6.5	35µM*	nt	-1.7%	9%[15.4 µM]
Cc1nnc2sc(-c3ccc(NC(=O)CSc4ccc(Cl)cc4)cc3)nn12	12%	-1.8	0.4	3%	-22%	18%	-3%
Cc1ccc(NC2CCCN(C(=O)c3ccccc3N3CCOCC3)C2)cc1C (centres undefined)	-8%	-2.3	nt	16%	-0.3%	0.7%	?
c1ccc(Cn2cc(-c3cccnc3)cn2)cc1	12%	-4.3	nt	nt	-6.8%	-1.0%	13%
O=[N+]([O-])c1ccc(N2CCN(CCO)CC2)c2ncccc12	11%	-3.4	1.6	-14%	1.0%	0.6%	-11%[15.4 µM]
COc1cccc(NS(=O)(=O)c2ccc(S(=O)(=O)N3CCOCC3)cc2)c1	-12%	-1.4	2.9	-1%	0.1%	-1.7%[38.3 µM]	-2%
O=C(C1CCN(S(=O)(=O)c2cccc3nsnc23)CC1)N1CCCc2ccccc21	?	-0.9	1.0	3%	-2.3%	2.5%	-25%
CCN1C(=O)CC2(C[N+]3(C)CCC2CC3)C1=O (centres undefined)	9%	0.5	-0.4	30%	0.4%	2.1%	2%
CC(C)C(NS(=O)(=O)c1cccc(C(F)(F)F)c1)C(=O)O (centres undefined)	-3%	1.8	2.8	4%	0.2%	0.8%	-28%
C/C(Cl)=C/Cn1c(NCCCn2ccnc2)nc2c1c(=O)[nH]c(=O)n2C	10%	-2.6	0.5	-2%	1.2%	1.5%	0%

Continued:
SMILES	gsp antagonist	D2 ag	Menin-MLL FL inh	Sfp PPTase inh	ClpP mod	PINK1 expr mod	gsp agonist
COc1ccc(N(CC(=O)NCCSC2CCCCC2)S(C)(=O)=O)c(OC)c1	-10%	-1.3	-2.0	?	0.2%	11%[38.3 µM]	-30%
Cc1c(C(=O)NCCN2C(=O)S/C(=C\c3cccs3)C2=O)cccc1[N+](=O)[O-]	-7%	0.9	6.1	-22%	1.0%	?	-7%[15.4 µM]
COC(=O)c1sc(C(F)(F)F)c(-c2ccccc2)c1S(=O)(=O)N1CCOCC1	-2%	-0.3	nt	nt	0.4%	-1.8%	4%[15.4 µM]
COc1ccc(C2CC(c3cccs3)=NN2C(=O)CSc2nc(=O)n3cc(C)ccc3n2)cc1 (centres undefined)	-10%	-1.8	nt	nt	-0.2%	-1.2%	5%[15.4 µM]
O=C(Nc1cccc(-c2nc3ncccc3o2)c1)c1ccco1	-2%	-2.0	1.7	10%	-19%	-1.2%	11%
COc1ccccc1N1C(=O)C2C3CC(c4ccccc4)C(C3)C2C1=O (centres undefined)	-26%	3.5	3.4	1%	-0.8%	-2.1%	14%[15.4 µM]
Cc1ccc2nc(SCC(=O)N3CCCCCC3)nc(=O)n2c1	4%	-0.5	nt	nt	nt	1.9%	31%[15.4 µM]
COCCN(Cc1cc2cc(C)c(C)cc2nc1Cl)C(=O)N1CCOCC1	2%	3.2	3.7	15%	-0.9%	-0.4%	6%
COc1ccc(/C=N/n2nnnc2N)c(OC)c1	10%	0.4	-1.0	9%	nt	5.3%	1%
CCOCCCN(C(=O)Cn1nnc2ccccc21)C(C(=O)NCc1ccco1)c1ccncc1 (centres undefined)	-5%	-3.2	4.8	-10%	1.3%	-1.4%	-1%
CC(=O)NS(=O)(=O)c1ccc(NC(=O)CN2C(=O)C3C4C=CC(C4)C3C2=O)cc1 (centres undefined)	4%	-0.5	-2.9	1%	-2.5%	2.5%	8%
Cn1c(=O)c2c(Nc3ccc(F)cc3)cc(=O)n(-c3ccccc3)c2n(C)c1=O	-13%	-3.3	1.2	10%	2.4%	4.6%	0%[15.4 µM]
